From PubChem
Bst PK mod: modulators of Bacillus stearothermophilus pyruvate kinase | partly purified Bacillus stearothermophilus pyruvate kinase, luminescence ATP production; ribose 5-phosphate activator present at AC10 | Potency, µM | 51,000 compounds, 1.2% hits | AID 361; in the data active means potency below about 11 µM; inconclusive means mostly about 12 µM to 25 µM; inactive means weaker than that;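 the screen sought inhibitors and activators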;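 note: potency is the fitted concentration of half-maximal effect; scaled between full activation by ribose 5 phosphate and full inhibition by luteolin; about four in five hits inhibit and the cells do not say which; series up to 57 µM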
TsaE inh: displaces an ADP probe from E. coli YjeE (TsaE) | Potency, µM | 71,000 compounds, 0.05% hits | purified YjeE, fluorescence polarisation of a bound ADP probe | P0AF67; active = well fitted falling curve; inconclusive = weaker or top-dose-only fall, or a rising curve; inactive = flat or poorly fitted curve;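 note: top concentration of the series not given in the record; excess ADP was the control for the full effect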
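Purified YjeE (10 uM) with BODIPY Texas Red-labeled ADP probe (2 uM); compounds pin-transferred, 15 min at room temperature. Binding inhibition read as decreased fluorescence polarization; ADP titration as control.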
Active calls of the source: *; i = inactive; ? = inconclusive; nt = no result given. A portion of the library, so the mix of outcomes need not match the whole.

SMILES	Bst PK mod	TsaE inh
COc1cc(C(c2nnnn2C(C)(C)C)N2CCN(C)CC2)cc(OC)c1OC (centres undefined)	>57	i
CCOc1ccc(-c2noc(-c3ccncc3)n2)cc1OCC	nt	i
Nn1c(SCC(=O)NCCC2=CCCCC2)nnc1C1CCCCC1	>57	i
Cc1cccc(-n2ncc3c(N4CCCC4)ncnc32)c1	5.37*	i
Cn1c(=O)n(CCN2CCOCC2)c(=O)c2c1nc1n2CCN1c1ccccc1	>57	i
Cc1sc2nc(SCC(=O)N3CCCCC3)[nH]c(=O)c2c1C	>57	i
O=C(CSC1CCCCC1)N1CCN(c2ccccc2)CC1	>57	i
O=C(NC1CCCC1)c1ccc(S(=O)(=O)N2CCCC2)cc1	>57	i
CC(C)(CC(=O)Nc1ccccc1)C(=O)O	nt	i
O=C(NC1CCCC1)C(c1ccc(Cl)cc1)N1CCOCC1 (centres undefined)	nt	i
C/C(N)=C(/C#N)C(=O)COC(=O)CC1CCCC1	>57	i
O=C(CCN1CCN(CCO)CC1)Nc1ccc(F)c(F)c1	nt	i
O=C(O)COc1ccc(Oc2ccccc2)cc1	>57	i
CCOC(=O)N1CCC(NC(=O)c2ccc3c(c2)ncn3C2CCCC2)CC1	>57	i
Cc1cccc(N2CC(C(=O)Nc3ccc4c(c3)OCO4)CC2=O)c1C (centres undefined)	>57	i
Cc1nn(-c2ccccc2)c2sc(C(=O)OCc3nnc(-c4ccccc4)o3)cc12	>57	i
COc1cc(C2=NOC(C(=O)Nc3ccc(C)cc3)C2)cc(OC)c1OC (centres undefined)	>57	i
CCS(=O)(=O)NCc1cn2ccsc2n1	>57	i
O=C(Cn1nc(-c2ccccc2)ccc1=O)N1CCOCC1	nt	i
COc1ccccc1C1=Nn2c(nnc2C2CCCCC2)SC1	>57	i
CCOC(=O)CN(C(=O)Cn1nnc2ccccc21)C(C(=O)NCCOC)c1ccccc1 (centres undefined)	>57	i
CC(C)CCNC(=O)Cc1c(C(=O)O)[nH]c2ccc(Cl)cc12	>57	i
COCCn1nnnc1C(C(C)C)N1CCC(Cc2ccccc2)CC1 (centres undefined)	>57	i
CC(C)=N[C@H](C(=O)O)C(C)(C)S	nt	i
COc1ccc(S(=O)(=O)C(C#N)c2nc3ccccc3nc2N2CCC(C)CC2)cc1 (centres undefined)	>57	i
COc1ccc(CN2CCCCCC2)c(C)c1C	>57	i
Cn1cccc1C(=O)N1CCC2(CCCN(c3ccccn3)C2)CC1	nt	i
c1ccc(CSc2nnc(-c3ccco3)c(-c3ccco3)n2)cc1	>57	i
CCS(=O)(=O)NCC(c1cccnc1)N1CCN(c2ccccc2OC)CC1 (centres undefined)	nt	i
COC(=O)c1sc2cnccc2c1N	nt	i
CCCC(c1nnnn1CS(=O)(=O)c1ccc(C)cc1)N1CCN(c2ccccc2)CC1 (centres undefined)	>57	i
CC(NC(=O)Cn1cnc2c1c(=O)n(C)c(=O)n2C)c1ccccc1 (centres undefined)	nt	i
COC(=O)c1ccccc1NC(=O)c1cc(-c2ccc(OC)c(OC)c2)on1	>57	i
C=CCc1cccc2cc(C(=O)N(CC)CC)c(=O)oc12	nt	i
COc1ccc2[nH]cc(CCNc3nc(-c4c(C)noc4C)nc4ccccc34)c2c1	nt	i
CCOC(=O)c1cc(CC)sc1NC(=O)C1CC1	>11.4	nt
CCOc1ccc(-c2nnn(CCC(=O)O)n2)cc1OC	>57	i
Cc1noc(C)c1CSc1nnc2scc(-c3ccc(Cl)cc3)n12	>57	i
CC1CN(c2nc3c(c(=O)[nH]c(=O)n3C)n2Cc2ccccc2F)CC(C)O1 (centres undefined)	>57	i
O=C(NCC(=O)N(c1ccccc1F)C(C(=O)NCC1CCCO1)c1ccccc1)c1ccco1 (centres undefined)	>57	i
Cc1ccc(-c2nc(C#N)c(NCc3cccc4c3OCO4)o2)cc1	>57	i
COc1ccc(C(=O)c2c[nH]c3ccccc23)cc1	nt	i
COCCCNC(=O)CSc1ccc(Cl)cc1	nt	i
CC(=O)c1cc(OC(=O)N2CCOCC2)ccc1OC(=O)N1CCOCC1	>57	i
CC(=O)Nc1ccc(S(=O)(=O)N2CCN(CCC#N)CC2)cc1	nt	i
Clc1ccc(C2=Nn3c(nnc3-c3n[nH]c4c3CCC4)SC2)cc1Cl	>57	i
CC(C)c1cc(Nc2cccc(O)c2)cc(C(C)C)c1O	nt	i
COCCOC(=O)c1[nH]c2c(c1C)C(=O)CC(c1ccc(F)cc1)C2 (centres undefined)	nt	i
CNC(=O)Nc1ccccc1NC(=O)NC	>57	i
COc1ccccc1NC(=O)C1=C(C)Nc2nc(-c3cccs3)nn2C1c1cccnc1 (centres undefined)	nt	i
COCCOc1ccc(C(F)(F)F)cc1NC(=O)COC(=O)c1c(C)noc1C	>57	i
COCCn1c(SCC(=O)Nc2sc(C)c(C)c2C#N)nnc1-c1ccc(OC)cc1	>57	i
COc1cccc(OC)c1OCC(O)CN1CCN(c2ccccc2)CC1 (centres undefined)	>57	i
COc1ccccc1-c1nc(C(N)=O)c2[nH]c(=O)n(-c3cccc(C)c3)c2n1	>57	i
COc1cc(CSc2ncn[nH]2)c(OC)cc1CSc1ncn[nH]1	>57	i
Cc1occc1-c1nnc(SCC(=O)c2ccc(Cl)cc2)n1C	>57	i
N#Cc1nc(COc2cccc(Cl)c2)oc1NCc1ccncc1	>57	i
COc1ccc(OC)c(NC(=O)CCN2CCCC(C)C2)c1 (centres undefined)	>57	i
O=C(CSc1nnnn1-c1ccccc1)Nc1nsc(-c2ccc(Cl)cc2)n1	>57	?
CCCCS(=O)(=O)N1CN(S(=O)(=O)CCCC)C2NC(=O)NC21 (centres undefined)	>57	i
(more compounds)
SMILES	Bst PK mod	TsaE inh
CCOC(=O)C1CCN(C(=O)c2cc(S(=O)(=O)N3CCOCC3)c(Cl)cc2Cl)CC1	>57	i
Cc1nc2oc3c(NCC4CCCO4)ncnc3c2c2c1COC(C)(C)C2 (centres undefined)	>57	i
O=C(CCn1c(=O)oc2ccccc21)N1CCN(c2ccccc2F)CC1	>57	i
CCCCNc1cc(C(=O)O)cc(S(N)(=O)=O)c1Oc1ccccc1	>25.6	i
Cc1cc(-c2ccco2)n(CC(=O)NCCN(C)C)n1	nt	i
COc1ccc2[nH]cc(CCNc3ncncc3-c3ccoc3)c2c1	nt	i
O=C(CCC1CCCCC1)Nc1c[nH]c(=O)[nH]c1=O	>57	i
N#CC1=C(N)Oc2cc3c(cc2C1c1ccc(Cl)cc1)OCO3 (centres undefined)	>57	i
Cc1nn(-c2nc3ccccc3[nH]2)c(N)c1-c1ccccc1	2.85*	i
Nc1nonc1-c1nc2ccccc2n1Cc1ccc(Cl)cc1	nt	i
COC(=O)c1ccccc1NC(=O)N1c2ccccc2CC1C (centres undefined)	>57	i
CC1C(C#N)=C(N)OC2=C1C(=O)CC(C)(C)C2 (centres undefined)	nt	i
CCOC(=O)c1ccc(N2C(=O)c3n[nH]c(C)c3C2c2ccccc2)cc1 (centres undefined)	>57	i
CN(C)C(=O)CN1C(=O)C2CCCCN2C(=O)c2ccccc21 (centres undefined)	>57	i
CCN(CC)CCCNC(=O)c1cc2c(=O)n(C)c3ccccc3c2n1C	nt	i
CCOC(=O)N1CCN(C(=O)c2oc3ccc(S(=O)(=O)N4CCCCCC4)cc3c2C)CC1	>57	i
O=S(=O)(NC1=NCCCCC1)c1cccs1	>57	i
Cc1cc(NS(=O)(=O)c2ccc(NC(=O)Nc3cccc(Cl)c3)cc2)no1	>57	i
CN1CCN(C(=O)c2cc3c(n(-c4ccccc4)c2=O)CC(C)(C)CC3=O)CC1	>57	i
C=C1C(C(=O)N2CCOCC2)C1C(=O)N1CCOCC1 (centres undefined)	>57	i
N#CC1=C(N)Oc2cc(O)ccc2C1C1CCCCC1 (centres undefined)	nt	i
Cc1ccc2c(c1)c1ncnc(N3CCN(c4ccccc4)CC3)c1n2C	nt	i
CCCc1[nH]nc2c1C(C1CCCCC1)C(C#N)=C(N)O2 (centres undefined)	nt	i
CC(C)C(c1nnnn1C1CCCCC1)N1CCOCC1 (centres undefined)	>57	i
N#Cc1ccc(CN2CCC3(CC2)CCN(C(=O)c2ccncc2)CC3)cc1	nt	i
NCCNCCNCCNCCN	nt	i
Cn1c2c(c(=O)n(C)c1=O)C1c3ccccc3OCC1C(C)(C)O2 (centres undefined)	nt	i
CC(C)C(c1nnnn1Cc1ccccc1)N1CCN(Cc2ccc3c(c2)OCO3)CC1 (centres undefined)	>57	i
Cc1ccc(NC(=O)COC(=O)c2ccc3c(c2)NC(=O)C2CCCN32)cc1 (centres undefined)	>57	i
CCOC(=O)C1CCN(Cc2coc3ccc(Cl)cc3c2=O)CC1	>57	i
CCc1c(C)nc(N)n2c(SCC(=O)N3CCCc4ccccc43)nnc12	>57	i
COc1ccc(N2CCN(C(=O)CSc3ncnc4c3cnn4-c3ccc(OC)cc3)CC2)cc1	>57	i
CCCC(C(=O)NCC1CCCO1)N(Cc1ccco1)C(=O)CNS(=O)(=O)c1ccc(F)cc1 (centres undefined)	>57	i
COc1ccc(C2C(=O)N(CCc3ccccc3)CC(=O)N2C2CCCC2)cc1 (centres undefined)	>57	i
O=C(Cn1c(C(=O)N2CCN(C3CCCCC3)CC2)cc2sccc21)c1ccccc1	>57	i
O=C(Nc1ccon1)c1cnc2sccn2c1=O	>57	i
COc1ccc2c(C)c(C(=O)NCC(C)O)oc2c1OC (centres undefined)	nt	i
Cc1noc(C)c1S(=O)(=O)N1CCC(Cc2ccccc2)CC1	>57	i
COC(=O)[C@@H]1C[C@H]1[C@@H](NC(=O)c1cc(C)nn1C)c1ccccc1	nt	i
COc1cccc(N(CC(=O)NCCSc2ccccc2)S(C)(=O)=O)c1	>57	i
CCOC(=O)c1c(CN2CCOCC2)n(C)c2cc(Br)c(O)c(CN(C)C)c12	nt	i
CC[C@@H]1[C@H]2CCCCN3[C@@H]2[C@@H](C[C@H]3[C@@H]2C[C@H](C)C(=O)O2)[C@@H]2[C@H]1OC(=O)[C@H]2C	nt	i
COc1ccccc1-c1cncnc1N(C)Cc1ccco1	nt	i
O=C(CS(=O)(=O)c1cn(Cc2ccc(F)cc2)c2ccccc12)N1CCCCC1	>57	i
Cc1noc(C)c1C(=O)Nc1nnc(-c2ccccc2)s1	nt	i

Six of the compounds above, with bars between the fields.
SMILES | Bst PK mod | TsaE inh
O=C(Nc1ccon1)c1cnc2sccn2c1=O | >57 | i
COc1ccc2c(C)c(C(=O)NCC(C)O)oc2c1OC (centres undefined) | nt | i
Cc1noc(C)c1S(=O)(=O)N1CCC(Cc2ccccc2)CC1 | >57 | i
COC(=O)[C@@H]1C[C@H]1[C@@H](NC(=O)c1cc(C)nn1C)c1ccccc1 | nt | i
COc1cccc(N(CC(=O)NCCSc2ccccc2)S(C)(=O)=O)c1 | >57 | i
CCOC(=O)c1c(CN2CCOCC2)n(C)c2cc(Br)c(O)c(CN(C)C)c12 | nt | i

More structures:
SMILES	Bst PK mod	TsaE inh
O=C(c1ccc(S(=O)(=O)N2CCOCC2)cc1)N1CCN(c2ccccc2F)CC1	>57	i
Cc1ccc(S(=O)(=O)OCC(=O)O)cc1	nt	i
Cn1c(Cc2csc(N)n2)nnc1SCC(=O)NC1CCCCC1	>57	i
Cc1ccc(-c2nnc(COc3cccc(-n4cnnn4)c3)o2)cc1	>57	i
CCc1c(C)nc2ncnn2c1Nc1ccc(C#N)c(Cl)c1	>57	i
CCOC(=O)C1=C(C)N=C2SC(CC)C(=O)N2C1c1cccc(F)c1 (centres undefined)	>57	i
OC(COCC1COc2ccccc2O1)CN1CCc2ccccc2C1 (centres undefined)	>57	i
COc1cccc(C(=O)OC2CCCN(C)C2)c1 (centres undefined)	>25.6	nt
COC(=O)c1cccc(NC(=O)CN2CCOCC2)c1	>57	i
CCOC(=O)Nc1ccc2c(c1)ncn2C1CCCCC1	>57	i
COc1ccccc1C1CC(c2ccc(C)cc2)Nc2ncnn21 (centres undefined)	>57	i
Cc1ccc(NC(=O)C2CCCN(S(=O)(=O)c3c(C)noc3/C=C/N(C)C)C2)cc1F (centres undefined)	>57	i
O=C(NC(=O)c1ccc(Cl)c(Cl)c1)OC1CCS(=O)(=O)C1 (centres undefined)	i	i
Clc1ccc(-n2ncc3c(NCCCn4ccnc4)ncnc32)cc1	?	nt
CC(=O)NC(c1ccccc1)c1nc2ccccc2[nH]1 (centres undefined)	>57	i
Cc1cccc(C(=O)OCc2cc3ccccc3[nH]c2=O)c1	>57	i
COc1c[nH]n(C2CCCCC2)c(=O)c1=O	nt	i
CCOC(=O)[C@H](N)/C=C(\C)CP(=O)(O)O	nt	i
CS(=O)(=O)c1ccc(CNC(=O)[C@@H]2C[C@H]2[C@@H](NP(=O)(c2ccccc2)c2ccccc2)c2ccccc2)cc1	nt	i

Grouped by structure, those above with a COOH group (7)
SMILES	Bst PK mod	TsaE inh
CC(C)(CC(=O)Nc1ccccc1)C(=O)O	nt	i
O=C(O)COc1ccc(Oc2ccccc2)cc1	>57	i
CC(C)CCNC(=O)Cc1c(C(=O)O)[nH]c2ccc(Cl)cc12	>57	i
CC(C)=N[C@H](C(=O)O)C(C)(C)S	nt	i
CCOc1ccc(-c2nnn(CCC(=O)O)n2)cc1OC	>57	i
CCCCNc1cc(C(=O)O)cc(S(N)(=O)=O)c1Oc1ccccc1	>25.6	i
Cc1ccc(S(=O)(=O)OCC(=O)O)cc1	nt	i

Complete entries from above. Order of screens: Bst PK mod | TsaE inh
`CCN(CC)CCCNC(=O)c1cc2c(=O)n(C)c3ccccc3c2n1C` as listed: nt | i
`C=C1C(C(=O)N2CCOCC2)C1C(=O)N1CCOCC1` (centres undefined) as listed: >57 | i
